# PKD1 kinase inh: inhibitors of human PKD1 kinase. PKD1 kinase fluorescence polarization assay. Q15139. inhibition, %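 (about 10 µM by stock and volumes)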. 200,000 compounds, 0.056% hits;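 active = inhibition of 50% or more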;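 note: controls were vehicle for no effect and a reference inhibitor for full effect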
# Target sequence (Q15139 whole entry, looked up): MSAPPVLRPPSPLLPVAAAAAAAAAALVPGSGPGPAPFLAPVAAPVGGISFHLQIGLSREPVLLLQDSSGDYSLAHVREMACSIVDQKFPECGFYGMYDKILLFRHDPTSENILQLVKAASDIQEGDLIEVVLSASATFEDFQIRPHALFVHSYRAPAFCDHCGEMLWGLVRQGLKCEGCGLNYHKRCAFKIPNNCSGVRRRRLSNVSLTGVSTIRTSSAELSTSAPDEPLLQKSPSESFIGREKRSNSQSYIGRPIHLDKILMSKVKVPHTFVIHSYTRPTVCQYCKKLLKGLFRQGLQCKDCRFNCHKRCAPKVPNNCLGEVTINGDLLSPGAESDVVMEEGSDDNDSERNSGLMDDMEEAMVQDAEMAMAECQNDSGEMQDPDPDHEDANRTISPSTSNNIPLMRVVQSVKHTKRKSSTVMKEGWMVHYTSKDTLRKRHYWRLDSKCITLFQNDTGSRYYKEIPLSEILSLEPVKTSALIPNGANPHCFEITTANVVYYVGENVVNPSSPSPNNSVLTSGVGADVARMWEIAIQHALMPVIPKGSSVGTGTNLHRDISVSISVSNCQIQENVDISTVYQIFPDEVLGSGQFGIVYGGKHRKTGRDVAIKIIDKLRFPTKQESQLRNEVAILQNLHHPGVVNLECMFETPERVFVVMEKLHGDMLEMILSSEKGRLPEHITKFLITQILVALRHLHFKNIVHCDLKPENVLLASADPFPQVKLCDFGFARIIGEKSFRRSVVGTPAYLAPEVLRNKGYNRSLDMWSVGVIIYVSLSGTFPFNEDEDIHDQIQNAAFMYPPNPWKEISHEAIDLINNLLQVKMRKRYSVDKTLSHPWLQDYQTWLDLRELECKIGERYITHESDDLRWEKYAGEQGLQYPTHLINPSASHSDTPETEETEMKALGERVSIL
# HSV augment: increases HSV replication in cells. HSV replication augmentation in cells, fold increase. maximum fold increase. 220,000 compounds, 0.005% hits. AID 1956;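 active = peak rise of 1.5-fold or more in the series; tested in PC3 cells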;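 note: first round at 10 µM; read as green reporter fluorescence; hits show the peak of a series up to 25 µM; 1 = signal of infected wells without compound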
# GALR2 ag: agonists of human galanin receptor 2 (GALR2); O43603; GALR2-expressing cells, agonist activation read-out; activation, %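 (tested at 5 µM)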; 140,000 compounds, 0.48% hits;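 active = above mean plus 3 SD of all compounds, about 5% in these data, not always enough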;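 note: 0% = vehicle buffer wells and 100% = reference agonist at full effect; tested in CHO reporter cells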
# Insulin prom inh: TRM-6 insulin promoter activity inhibition; TRM-6 cells (human fetal islet line), insulin promoter-eGFP reporter, imaging; reporter expression induced with tamoxifen; inhibition, % at 2 µM; 130,000 compounds, 0.9% hits; AID 1273;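 active = inhibition above the mean plus 3 SD, with well images judged a real hit on visual review, cut at about 60% in these data, passing the limit was not always enough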
# RGS16-Gao: regulators of human RGS16-Galphao interaction; binding response (% of control), % at 10 µM; O15492+P09471; AID 1441; 220,000 compounds, 0.38% hits; bead-based flow cytometry RGS16-Galphao binding, fluorescence; actives lie on both sides;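 active = below 25% or above 175%, edge rows of some plates excepted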;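 note: Galphao activated by GDP with aluminum fluoride before binding; 100% = wells without compound and 0% = beads without RGS; some results beyond the cut were filed as inactive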
# Insulin prom inh cell count: further read-out of Insulin prom inh, marked with its call; normalized cell count, %; measured here: cell count, toxicity; reference of the scale not given here;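 cells exposed to compound for 48 h; stained nuclei by imaging scaled within each plate; lower means fewer cells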
# HSV augment primary fold: further read-out of HSV augment, marked with its call; fold increase; compound at 10 µM; measured here: primary screen fold increase 10 uM; tested in PC3 cells;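 GFP signal in the first replicate; 1 = infected wells without compound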
# * hit, by the source's call; i = inactive; / = no result given.
# Under each structure: PKD1 kinase inh	HSV augment	HSV augment primary fold	GALR2 ag	Insulin prom inh	Insulin prom inh cell count	RGS16-Gao
CC1c2nc3ccccc3n2C(CC(=O)NCCCN2CCOCC2)C(=O)N1Cc1ccccc1 (centres undefined)
 : -2	i	0.9	/	-149	46	102
Cn1c(CCc2ccccc2)n[nH]c1=S
 : -4	i	1.1	/	/	/	101
O=C(OCCN1C(=O)c2ccccc2C1=O)c1cc(S(=O)(=O)N2CCOCC2)ccc1Cl
 : -5	i	0.96	-1.0	-7	72	99
O=C(NCCNc1cc(Cl)ccc1[N+](=O)[O-])c1ccco1
 : -7	/	/	-0.2	/	/	102
CCOC(=O)/C(C#N)=C/c1cc(C)n(-c2ccc(C)cc2)c1C
 : 2	i	1	-3.1	36	73	99
COc1ccc(C(c2nnnn2C2CCCC2)N2CCN(c3ccccc3)CC2)cc1 (centres undefined)
 : 1	i	1	-0.4	-56	99	102
COc1ccc2c(c1)CCc1c(C(=O)N3CC4(C)CC3CC(C)(C)C4)noc1-2 (centres undefined)
 : 0	i	0.92	-0.3	-70	139	96
C/C(=N\NC(=O)c1ccc([N+](=O)[O-])cc1)c1cc2ccccc2oc1=O
 : -7	i	0.92	-3.2	/	/	101
O=C(CCl)Nc1cc(-c2ccccc2)nn1-c1ccccc1
 : 4	i	0.9	0.7	87*	127*	101
CCOC(=O)N1CCN(S(=O)(=O)c2ccc(Br)s2)CC1
 : -5	i	0.83	-1.8	-25	36	101
CCOC(=O)C1CCN(C(=O)CSc2cc(=O)n(C)c3ccccc23)CC1
 : -4	i	0.76	-2.9	/	/	107
COC(=O)NNC(=O)c1ccc(C)c(Br)c1
 : 7	i	0.91	-1.6	12	156	110
CC1(C(=O)Nc2c(F)c(F)c(F)c(F)c2F)CC1(Br)Br (centres undefined)
 : /	i	1.1	/	/	/	109
CCc1cc2c(=O)c(-c3ccc4c(c3)OCCO4)coc2c(CN2CCCCC2C)c1O (centres undefined)
 : 13	i	0.8	/	/	/	99
Cc1c(C(=O)c2cccc([N+](=O)[O-])c2)c2ccccn2c1CCC#N
 : 5	i	0.93	0.7	-38	163	102
Cc1cc(C)n(-c2nc(SCCN(C)C)c3c4c(sc3n2)CCCC4)n1
 : -4	i	0.52	-2.4	-41	283	103
COC(=O)c1ccc(N2CCN(S(=O)(=O)c3ccccc3)CC2)c([N+](=O)[O-])c1
 : -4	i	0.87	-1.9	/	/	62
O=C(Nc1ccc(Br)cn1)c1cccc2c1-c1ccccc1C2=O
 : -1	i	0.68	/	/	/	95
CCCc1cc(=O)n2[nH]c(CCc3ccccc3)nc2n1
 : 2	i	0.76	-2.3	/	/	113
CN(C)CC(O)COC(c1ccc(Cl)cc1)c1ccc(Cl)cc1 (centres undefined)
 : -7	i	0.76	/	/	/	97
O=c1[nH]c(=O)n(CCO)c2nnn(Cc3ccccc3)c12
 : 6	i	1	-0.8	/	/	81
Cc1ccc(SCC(=O)Nc2cccc(NC(=O)c3ccco3)c2)cc1
 : 2	i	1	-2.2	-21	119	99
COc1ccccc1/C=C/CN1CCN(c2ccccc2)CC1
 : -9	i	0.74	-1.1	0	163	82
Cc1ccc2[nH]c(=O)c3cc(C(=O)N(CCCOC(C)C)Cc4ccco4)sc3c2c1
 : 4	i	0.58	-1.1	/	/	114
Brc1ccc(-c2csc(N/N=C/c3ccco3)n2)cc1
 : 4	i	1	/	43	102	104
CCOC(=O)C1C(=O)C=C(c2cccs2)CC1c1ccccc1 (centres undefined)
 : 1	i	1.1	-0.4	/	/	114
Cc1cc(OCc2nc(-c3cccs3)no2)cc(C)c1Cl
 : -5	i	1	-1.7	/	/	113
CCN(CC)C(=O)C1CCN(Cc2ccc(Br)cc2)CC1
 : 0	i	0.96	1.0	/	/	101
CCOc1ccc2[nH]c(C)c(CN3CCCCC3)c(=O)c2c1
 : -10	/	/	-2.8	-61	63	177
COc1cc(OC)c(C2C(C(=O)Nc3ccccc3)=C(C)Nc3ncnn32)cc1OC (centres undefined)
 : -8	i	1	-1.6	20	137	106

# Reprinted at random: six compounds from above
# Under each structure: PKD1 kinase inh	HSV augment	HSV augment primary fold	GALR2 ag	Insulin prom inh	Insulin prom inh cell count	RGS16-Gao
CCOC(=O)C1C(=O)C=C(c2cccs2)CC1c1ccccc1 (centres undefined)
 : 1	i	1.1	-0.4	/	/	114
COc1cc(OC)c(C2C(C(=O)Nc3ccccc3)=C(C)Nc3ncnn32)cc1OC (centres undefined)
 : -8	i	1	-1.6	20	137	106
Cc1ccc(SCC(=O)Nc2cccc(NC(=O)c3ccco3)c2)cc1
 : 2	i	1	-2.2	-21	119	99
CCN(CC)C(=O)C1CCN(Cc2ccc(Br)cc2)CC1
 : 0	i	0.96	1.0	/	/	101
Cc1cc(OCc2nc(-c3cccs3)no2)cc(C)c1Cl
 : -5	i	1	-1.7	/	/	113
COc1ccccc1/C=C/CN1CCN(c2ccccc2)CC1
 : -9	i	0.74	-1.1	0	163	82

# Continuation:
# Under each structure: PKD1 kinase inh	HSV augment	HSV augment primary fold	GALR2 ag	Insulin prom inh	Insulin prom inh cell count	RGS16-Gao
Nc1cc([N+](=O)[O-])ccc1Nc1ccccc1
 : -2	i	1.1	/	-41	86	101
O=C(C1=C(O)C(=O)N(Cc2ccccc2)C1c1ccco1)c1ccco1 (centres undefined)
 : 6	i	1.1	-1.6	-8	75	99
O=C(Nc1ccc2ccccc2c1)c1ccc(NS(=O)(=O)c2ccc(Br)s2)cc1
 : -15	i	1.1	-1.5	39	90	98
Cc1ccc(Cl)cc1NC(=O)C(Cc1ccccc1)N1C(=O)C2C3CCC(C3)C2C1=O (centres undefined)
 : 3	i	0.96	-0.2	/	/	110
CC(C)Cn1c(N)c(C(=O)COC(=O)c2cnc(Cl)c(Cl)c2)c(=O)n(C)c1=O
 : 2	i	0.85	/	64	96	104
CC1(OC(=O)C2CCCC2)C(=O)C=C2C=C(c3ccsc3)N(C3CCCCC3)C=C2C1=O (centres undefined)
 : /	i	1	/	/	/	91
COc1ccccc1-n1c(CNC(=O)c2ccccc2)nnc1SCC(=O)Nc1nnc(C)s1
 : 8	i	0.95	/	/	/	107
CCCCCCn1c(Br)nc2c1c(=O)n(C)c(=O)n2C
 : 4	i	1.1	/	27	72	80
O=C1CCCN1CCCNC(=S)Nc1ccccc1Cl
 : 0	i	0.98	/	-55	139	109
c1ccc(CC2CNc3ccccc3CN2)cc1 (centres undefined)
 : -10	i	0.96	-0.9	/	/	98
O=C(O)c1ccc(N2C(=O)c3cccnc3C2=O)cc1
 : -7	i	0.98	/	/	/	98
CC(C)N=c1scc(-c2ccco2)n1/N=C/c1ccc(O)c(O)c1
 : 5	i	0.72	0.9	-5	67	101
CCOC(=O)NC(=S)c1ccc[nH]1
 : 5	i	1.1	-2.1	/	/	106
CCC(C)NS(=O)(=O)c1cccs1 (centres undefined)
 : -1	i	0.93	-3.0	25	106	111
Cc1cc(NC(=O)Nc2ccc(Cl)c(Cl)c2)n(-c2ccccc2)n1
 : /	i	1	/	/	/	100
O=C(NC1CCC(NC(=O)C(F)(F)C(F)F)CC1)C(F)(F)C(F)F (centres undefined)
 : -2	i	0.96	-1.6	-7	81	101
O=C(C1CCN(S(=O)(=O)c2cccs2)CC1)N1CCCCCC1
 : 9	i	0.96	-1.5	-21	88	104
COc1cc(NS(=O)(=O)c2ccc(NC(=O)CN3C(=O)c4ccccc4C3=O)cc2)ncn1
 : -6	i	1	/	/	/	100
Cc1cccc(C)c1NC(=O)CSCCO
 : -3	i	1	-1.5	22	96	102
CCC(CC)NC(=O)COC(=O)c1cc(Br)ccc1Cl
 : 0	/	/	-0.5	/	/	80
CC1(c2cc(C(F)(F)F)n3nc(C(=O)O)cc3n2)CC1
 : -1	i	0.76	-0.6	43	92	113
COc1ccc(N2CC(O)=C(c3nc(-c4ccc(F)cc4)cs3)C2=N)cc1
 : 7	i	1.1	/	/	/	103
Cc1cc(NC(=O)CCOc2ccccc2)no1
 : -5	i	1.1	-0.8	-3	116	/
C/C(=N\O)C1(C)N(O)C(C)(C)C(c2ccc(Br)cc2)=[N+]1[O-] (centres undefined)
 : -5	i	0.81	0.3	7	132	99
CCCn1c2ccccc2c2nnc(SCC(=O)Nc3ncccn3)nc21
 : 8	i	0.87	0.7	21	105	85
CCNC(=S)Nc1cc(OC)c(NC(=O)c2ccco2)cc1OC
 : 6	i	0.86	/	3	92	101
CCOC(=O)C1CCN(C(=O)COC(=O)CNC(=O)c2ccc(OC)cc2)CC1
 : 3	i	0.91	/	/	/	100
CC(C)(C)C(=O)OCc1cn(-c2ccccc2)nn1
 : -1	i	0.84	-2.5	-14	96	103
Cc1ccc(-c2nc3ccsc3c(=O)[nH]2)cc1
 : -6	i	1	/	/	/	97
CC(C)C(c1nnnn1C1CCCC1)N1CCN(C(=O)c2ccco2)CC1 (centres undefined)
 : -4	i	0.84	-4.1	31	87	105
CCc1ccc(C(=O)/C=C/c2cnn(C)c2C)s1
 : -10	i	0.79	-3.1	-5	179	156
COc1ccc(CC(=O)Nc2ccc(S(=O)(=O)Nc3ncccn3)cc2)cc1OC
 : /	i	1.1	/	/	/	97
COCCN1C(=O)c2ccccc2C(C(=O)Nc2ccc3c(c2)OCCO3)C1c1ccc(F)cc1 (centres undefined)
 : -4	i	1.1	0.0	-26	72	96
CCOC(=O)c1ccc2[nH]cc(C(C)=O)c(=O)c2c1
 : -5	i	0.96	-5.2	26	200	96
CN(C)[C@H]1N(C(=O)c2ccc(Br)cc2)N=C2c3ccccc3S(=O)(=O)N21
 : -3	i	1	-2.7	42	75	115
COc1ccccc1NC(=O)Nc1ccccc1C(N)=O
 : -9	i	0.99	/	/	/	99
C=C(C)C1CC=C(C)/C(=N\NC(=O)CNc2cccc3ccccc23)C1 (centres undefined)
 : 3	i	1.2	-2.6	/	/	97
COc1cc(S(=O)(=O)N2CCOCC2)ccc1NC(=O)CSc1n[nH]c(=O)[nH]c1=O
 : -2	i	0.93	/	/	/	101
O=C(CN1C(=O)c2ccccc2C1=O)c1ccccc1
 : 4	i	1	-1.5	-153	20	101
CCOC(=O)c1[nH]c2ccc(Br)cc2c1NC(=O)CCN1CCCC(C)(C)C1
 : 1	i	0.73	-1.1	-14	100	51
COc1ccc(NC(=O)Cn2nnc(C(N)=O)c2N)c(OC)c1
 : 0	i	0.95	0.9	8	114	105
Cc1ccc(N=c2ssnc2Cl)cc1
 : -2	i	0.99	-1.0	-24	158	61
CC1Cc2ccccc2N1C(=O)CSc1nnc2n1C(C)(C)Cc1ccccc1-2 (centres undefined)
 : 11	i	0.78	1.9	56	73	100
CC1CCCN(C(=S)Nc2ccc(S(=O)(=O)N3CCCCC3)cc2)C1 (centres undefined)
 : /	i	0.95	/	/	/	100
NC(=S)N/N=C/c1ccc(-c2cc(Cl)cc(Cl)c2)o1
 : -4	i	0.98	0.6	46	94	100
CCN(CCCNC(=O)C1CCN(S(=O)(=O)c2c(C)[nH]c(=O)[nH]c2=O)CC1)c1cccc(C)c1
 : -2	i	0.96	0.0	-24	104	106
COc1ccc(S(=O)(=O)CCc2nc3ccccc3s2)cc1
 : 2	i	0.93	-1.3	/	/	72
CCc1c(C)nc2ncnn2c1NC1CCCc2ccccc21 (centres undefined)
 : -4	i	1	/	/	/	59
Cc1ncccc1C(=O)N1CCCC(CNC(=O)c2ccc(-c3ccccc3)cc2)C1 (centres undefined)
 : 7	i	0.96	/	/	/	106
CC(=O)C1=C(O)C=C(c2ccco2)CC1c1ccco1 (centres undefined)
 : -2	i	1	-0.9	/	/	100

# Continuation.
# Under each structure: PKD1 kinase inh	HSV augment	HSV augment primary fold	GALR2 ag	Insulin prom inh	Insulin prom inh cell count	RGS16-Gao
COc1ccc(-c2cc(C(F)F)n3ncc(C(=O)N4CCSCC4)c3n2)cc1
 : -2	i	0.96	1.1	4	102	101
CC(=O)Nc1ccc(CN2CCC(CO)(CCOc3ccccc3)CC2)cc1
 : 7	i	1.1	/	/	/	96
COc1ccc(/C(N)=N/O)cc1O
 : -7	i	0.96	-1.1	11	65	115
O=C(CCC1CCCCC1)NC1=NCCS1
 : -8	i	1.1	-0.1	20	97	106
Cc1onc(-c2ccccc2Cl)c1C(=O)NCc1ccco1
 : -6	i	0.91	-0.7	/	/	75
CCN(CC)CCCN1C(=O)c2oc3ccccc3c(=O)c2C1c1cccnc1 (centres undefined)
 : 9	i	0.97	-2.2	-57	109	95
CCC(=O)N1CCc2cc(OC)c(OC)cc2C1COc1ccc(OC)cc1 (centres undefined)
 : 3	i	0.96	/	63	116	105
N=C1SCC(=O)N1c1ncc(Cc2ccc(F)cc2)s1
 : -9	i	0.89	/	17	87	106
CC1CCN(C(=O)c2ccc(CSc3ccc(Cl)cc3)cc2)CC1
 : 1	i	0.93	-0.6	18	115	94
